VACV mCherry inh = inhibitors of vaccinia virus infection (mCherry reporter signal) | Vaccinia virus mCherry reporter infection, fluorescence; about a quarter of the inactives have no number | Potency, µM (highest dose often 36.5 µM), without a hit: top-dose activity change, negative = inhibition, hits mostly inhibitors | 310,000 tested, 0.63% active | AID 720579; active = well fitted inhibition curve with a large enough effect; inconclusive = small, poorly fitted or top-dose-only effect; inactive = no such curve, though single readings can be large or run the other way; tested in A549 cells; also: nearly all actives have a fitted effect of over 35% in size; inactives centre near -10
Vaccinia Venus = vaccinia inhibition (Venus reporter); Vaccinia virus Venus reporter expression, fluorescence; Potency, µM (titrated, usually from 36.5 µM), for inactives: top-dose activity change, negative = inhibition, usual class: inhibitors; 330,000 tested, 0.46% active; AID 720580; active means well fitted inhibition curve with a large enough effect; inconclusive means small, poorly fitted or top-dose-only effect; inactive means no such curve, though single readings can be large or run the other way; tested in A549 cells; also: nearly all actives have a fitted effect of over 30% in size; inactives centre near -10
The depositor's hits bear a star; i = inactive; ? = inconclusive; . = not tested or not shown; & = joins results of further samples; [ ] = another dose, or the depositor's remark. % is scaled to controls: 0 for no effect and ±100 for the full control effect; potency is read from the fitted curve at half-maximal effect.

SMILES | VACV mCherry inh | Vaccinia Venus
O=C(O)CCCN1C(=O)C2C3C=CC(C2C1=O)C1C(=O)N(CCCC(=O)O)C(=O)C31 (stereo not given) | -10.4% | -5.3%
COc1ccc(C2C(C#N)=C(N)Oc3c2c(=O)oc2ccccc32)cc1Cn1cc([N+](=O)[O-])cn1 (stereo not given) | -2.6% | 0.5%
COc1ccc(-c2noc(CCC(=O)Nc3ccc(C)c(C)c3)n2)cc1 | -9.5% | -10.8%
Cc1ccc2oc(=O)c3cnn(CC(=O)NCCCOC(C)C)c3c2c1 | -14.9% | -9.7%
CC(C(=O)N=Nc1c(O)[nH]c2ccccc12)n1cnc2ccccc2c1=O (stereo not given) | i | -7.7%
Cc1ccccc1N1CCN(C2CCCN(C(=O)CCc3c(C)noc3C)C2)CC1 (stereo not given) | i | -15.9%
COc1ccc(N2C(=O)CCC(C(=O)Nc3cccc(C)n3)C2c2ccc(OC)c(OC)c2)cc1 (stereo not given) | -14.3% | -2.0%
COc1cc([N+](=O)[O-])ccc1NC(=O)CCCOc1cccc(C)c1 | -20.5% | -13.6%
CC1=C(C(=O)OC(C)C)C(c2ccc(O)cc2)NC(=O)N1 (stereo not given) | i | -4.1%
COCCNc1c2c(nc3c(-c4ccccc4)c(C)nn13)CCC2 | i | -5.5%

Complete entries, quoted from the list. Order of screens: VACV mCherry inh | Vaccinia Venus
Listed for Cc1ccc2oc(=O)c3cnn(CC(=O)NCCCOC(C)C)c3c2c1 = -14.9% | -9.7%
Listed for COc1ccc(N2C(=O)CCC(C(=O)Nc3cccc(C)n3)C2c2ccc(OC)c(OC)c2)cc1 (stereo not given) = -14.3% | -2.0%
Listed for COc1cc([N+](=O)[O-])ccc1NC(=O)CCCOc1cccc(C)c1 = -20.5% | -13.6%
Listed for CC1=C(C(=O)OC(C)C)C(c2ccc(O)cc2)NC(=O)N1 (stereo not given) = i | -4.1%
Listed for COc1ccc(-c2noc(CCC(=O)Nc3ccc(C)c(C)c3)n2)cc1 = -9.5% | -10.8%

More records.
SMILES | VACV mCherry inh | Vaccinia Venus
CCOC(=O)c1cc2c(=O)n3ccccc3nc2n(Cc2ccco2)c1=NC(=O)c1ccc(OCC)cc1 | -7.2% | -7.0%
Cc1cc2c(cc1S(=O)(=O)N1CC(C)CC(C)C1)OCC(=O)N2 (stereo not given) | i | -13.9%
Cc1ccc(OCC(=O)N/N=C\c2cccn2C)c([N+](=O)[O-])c1 | 7.7% | 1.0%
C#Cc1ccc([C@H]2C=C(C(=O)Nc3ccccc3)O[C@@H](OCc3ccc(CO)cc3)C2)cc1 | i | -16.2%
CC(OC(=O)Cc1ccc(F)cc1)C(=O)N1CCc2ccccc21 (stereo not given) | -1.1% | -19.9%
O=c1[nH]c2ccc(NCc3ccc(-c4ccc(Cl)cc4)o3)cc2[nH]1 | -13.3% | -17.4%
CC(C)Oc1ccc(/C=N/NC(=O)c2ccc(N(Cc3ccccc3)S(C)(=O)=O)cc2)cc1 | -13.6% | -14.5%
COc1ccc(/C=N/NC(=S)Nc2cccc(C(=O)O)c2)cc1 | -1.3% | -2.2%
CC(C)C[C@H](NC(=O)c1ccc(OC2CCN(C(=O)C3CC3)CC2)cc1)C(N)=O | -1.7% | -15.1%
O=C(Nc1ccc(NC(=O)C2CC2)cn1)c1ccccc1 | 2.0% | 8.9%
COCCN1C=C(C(=O)OC)C(c2ccc(OC)c(OC)c2)C(C(=O)OC)=C1 | i | -6.0%
COc1cc(NC(=O)c2cc(S(=O)(=O)N3CCCCC3)ccc2N2CCOCC2)cc(OC)c1 | i | -14.3%
O=C(NCCNc1ccc([N+](=O)[O-])cc1C(F)(F)F)c1ccccc1F | -21.6% | -23.0%
O=C(C1CCN(S(=O)(=O)c2cnc[nH]2)CC1)N1CCN(c2ncccn2)CC1 | -14.5% | -9.2%
O=C(Nc1ccc(C(=O)N2CCN(c3ccccn3)CC2)cc1)c1ccc(Br)o1 | -6.6% | -1.0%
CC(=O)c1cccc(NC(=O)CC2S/C(=N/N=C3CCCCCC3)NC2=O)c1 (stereo not given) | -8.5% | -13.6%
O=c1c(/C=N/O)coc2ccc3ccccc3c12 | -15.6% | -6.6%
CCc1ccc(NC(=O)CN(C(=O)N2CCN(CC)CC2)S(=O)(=O)c2ccc(C)cc2)cc1 | -4.5% | 2.9%
Cc1cccc(S(=O)(=O)NC(=O)C2(C)CCN2C(=O)CCC2CCCC2)c1 (stereo not given) | 53.7%[activator] | -4.4%
Cc1ccc(COC(=O)CCc2nc3ccccc3c(=O)[nH]2)cc1 | -12.5% | -8.2%
O=C(COC(=O)/C=C/c1cccc(C(F)(F)F)c1)Nc1cccc(S(=O)(=O)NC2=NCCC2)c1 | -1.0% | -3.5%
COc1ccc(CCNC(=O)CN(CCc2ccccc2)S(C)(=O)=O)cc1 | 8.0% | 1.1%
CCc1ccc(NC2=NCCCS2)cc1 | ? | -10.3%
O=c1cc(N2CCc3ccccc3C2)[nH]c(=O)n1-c1ccccc1Cl | 0.5% | 14.0%
CCN(CC)C(=O)Nc1c(C)n(C)n(-c2ccccc2)c1=O | . | -12.6%
O=C(O)c1cc(S(=O)(=O)Nc2cccc3ccccc23)c(Cl)cc1Cl | -3.7% | 7.3%
COc1ccc(C(=O)Nc2ccc(S(=O)(=O)Nc3nccnc3OC)cc2)cc1OC | -0.6% | -6.5%
Cc1ccc(-n2ncc(C(=O)NCc3ccc4c(c3)OCO4)c2NC(=O)c2ccco2)cc1C | i | -10.4%
NC(=O)NC(CC(=O)Nc1cccnc1)c1cccc(Br)c1 (stereo not given) | -20.4% | -3.0%
COc1ccc(-n2nc(C(=O)NCC(=O)N3CCC(C)CC3)c3ccccc3c2=O)cc1Cl | -26.6% | -12.1%
CCN1C(=O)[C@H]2[C@@H](c3ccc(SC4CCCCC4)cc3)N[C@@](CC(C)C)(C(=O)OC)[C@H]2C1=O | ? | -21.3%
COc1ccc(-c2cc(C(=O)NCCc3ccccc3)c3c(-c4ccccc4)[nH]nc3n2)cc1 | ? | ?
CCO[C@@H]1OC(C(=O)O)=C[C@H](c2coc3ccccc3c2=O)[C@H]1CCCO | -11.6% | -12.7%
Cc1c(C(=O)O)[nH]c2c1C(=O)CC(c1ccccc1)C2 (stereo not given) | . | ?
C=CCOn1c(=O)c(=O)n(OCc2ccccc2)c2ccccc21 | -5.2% | 2.4%
Cc1ccc(NC(=O)Cn2c(=O)oc3cc(S(=O)(=O)NCc4ccccc4)ccc32)cc1 | ? | -27.0%
CCN(Cc1cnn(C)c1)C(=O)c1ccc2nc(Cc3cccc(Cl)c3)oc2c1 | ? | -14.4%
O=C(NC1CCNCC1)C1CCCCC1 | i | -11.6%
COCCCn1c(SCc2cc(=O)[nH]c3ccccc23)nnc1-c1ccco1 | i | -7.7%
O=c1[nH]c(=O)n(Cc2ccccc2)c(O)c1C=Nc1ccc(CN2CCOCC2)cc1 | . | ?
Cc1ccc(C(C(=O)NC2CCCCC2)N(C)Cc2ccccc2)cc1 (stereo not given) | -14.5% | -10.0%
Cc1ccc2nc(NC(=O)c3ccc4ncsc4c3)sc2c1 | ? | -21.2%
CSc1cccc(NC(=O)C(=O)NCc2ccccc2)c1 | -6.8% | 2.3%
C=CCN(C(=O)c1csnn1)C(C(=O)NC1CCCC1)c1ccccc1F (stereo not given) | -0.2% | 9.4%
O=[N+]([O-])c1cccc(S(=O)(=O)Nc2ccc(S(=O)(=O)NCC3CCCO3)cc2)c1 (stereo not given) | -12.0% | -12.1%
CC1CCN(C(=S)NC(=O)c2ccccc2)CC1 | . | -13.1%
Cc1cc[n+](CC#N)cc1 | -14.1% | -11.6%
Cc1ccc(Cl)cc1N1CCN(C(=O)c2cc3c(=O)oc4ccccc4c3s2)CC1 | 10.5% | 1.9%
Cc1ccc2cccc(Oc3ccc([N+](=O)[O-])cc3[N+](=O)[O-])c2n1 | i | -2.0%
COc1cccc(C2NC(=O)c3ccccc3O2)c1OCc1ccccc1F (stereo not given) | -7.3% | -0.8%

Going on with the list:
SMILES | VACV mCherry inh | Vaccinia Venus
O=C(Oc1ccnc2cc(Cl)ccc12)N1CCCCCC1 | . | ?
c1ccc(-c2csc(-n3cccn3)n2)cc1 | i | -3.1%
O=C1NCN(c2ccccc2)C12CCN(C(c1cc3ccccc3o1)c1nnnn1C1CCCCC1)CC2 (stereo not given) | -3.4% | -8.9%
Cc1cc(OCc2cc(C(=O)N3CCCCCC3)no2)cc(C)c1Cl | i | -17.6%
CCn1c(-c2cccnc2)nc2cc(NC(=O)COC)cc(C(=O)N3CCOc4ccccc4C3)c21 | -13.6% | -11.6%
CC(=O)Nc1ccc(S(=O)(=O)NCCC(=O)OCC(=O)NCc2ccccc2)cc1 | -0.5% | -8.7%
COc1ccc(NC(=O)CCCCC(=O)Nc2ccc(OC)cc2OC)c(OC)c1 | -1.3% | 7.0%
O=C(CSc1ccc(-c2cccnc2)nn1)Nc1ccccc1 | -14.6% | -16.8%
O=S(=O)(c1ccccc1)N1N=C(c2ccccc2)CC1c1ccccc1 (stereo not given) | -13.3% | -15.2%
CCOC(=O)N1CCC(N(CCN(C)C)C(=S)Nc2cc(C)cc(C)c2)CC1 | -0.4% | -20.6%
CCc1ccc(-c2cc(C(=O)NN3CCOCC3)c3ccccc3n2)cc1 | . | ?
CC1CCCCC1NC(=O)CSc1nnnn1C (stereo not given) | -1.5% | 6.0%
Cc1ccc(NC(=S)NC(=O)/C=C/c2ccco2)c(O)c1 | -28.1% | -1.4%
CC(C)S(=O)(=O)CC(=O)c1ccc(Cl)cc1 | i | -14.8%
Cc1cccc(C)c1NC(=O)C1(C)CCC(=O)N1c1cc(C(C)(C)C)nn1C (stereo not given) | 1.6% | 4.4%
Cc1c(C(=O)NCc2ccc3c(c2)cc(C)n3C)cccc1[N+](=O)[O-] | -4.5% | 33.9%[activator]
Cn1c(=O)oc2cc(S(=O)(=O)NCc3ccccn3)ccc21 | i | -3.8%
C/C(Cn1cnc([N+](=O)[O-])n1)=N\NC(=O)c1ccc(Br)cc1 | -16.5% | -8.0%
O=C(O)c1ccc2c(c1)C(=O)N(c1cccc(C(=O)/C=C/c3ccccc3)c1)C2=O | -9.0% | 2.3%
C=CCn1c(O)c(N=NC(=S)Nc2cccc(OC)c2)c2ccccc21 | -20.5% | -13.5%
O=C(CNC(=O)c1ccc(Cl)cc1)OC1CCOC1=O (stereo not given) | -13.1% | -0.8%
O=C(NNC(=O)c1cccc2ccccc12)c1ccc(Cl)cc1 | i | -9.0%
COc1ccc(OC)c(NC(=O)CSc2nc3ccccc3c(=O)n2CCC(=O)NC2CCCCC2)c1 | -10.6% | 1.2%
COc1ccc2c(c1)C(=O)N(c1ccccc1OC)C(=O)C2(C)C | -2.7% | -5.1%
O=C(COc1ccccc1Cl)Nc1ccc2c(c1)OCO2 | ? | 1.0%
N/C(=N\OC(=O)CCCOc1ccccc1)c1ccccn1 | i | -21.0%
O=C(O)C1C2C=CC(C2)C1C(=O)OCc1ccccc1 (stereo not given) | -10.8% | -2.4%
CC(=O)c1sc(N)nc1C | -14.6% | -6.4%&-0.4%
CCc1ccccc1NC(=O)C(CC)Sc1ncnc2c1sc1ccccc12 (stereo not given) | 16.5% | -7.5%
COc1cccc(-n2c(-c3ccc4[nH]c(C)c(C)c4c3)n[nH]c2=S)c1 | i | -22.8%
CCc1ccccc1NC(=O)CCN1C(=O)c2ccccc2C1=O | . | 3.7%
Oc1ccccc1/C=N/Nc1nc2ccccc2o1 | ? | ?
CCCN(CCC)c1nc2ccccc2nc1C(C#N)C(=O)OC(C)COC (stereo not given) | . | -30.0%
CC1CCCCN1C(=O)Cn1ncc2c3ccccc3n(Cc3ccccc3F)c2c1=O (stereo not given) | -24.9% | -26.9%
Cc1ccc(CNC(=O)CCc2c(C)nc3c(c(C)nn3-c3ccc(C)cc3)c2C)cc1 | -5.5% | -23.5%
Cc1ccc(Cl)cc1N1CCN(C(CC(C)C)c2nnnn2CC2CCCO2)CC1 (stereo not given) | . | 16.1%
Cn1cc([N+](=O)[O-])c(C(=O)Nc2ccc(-c3nc4ccccc4[nH]3)cc2)n1 | ? | ?
CCN(C(=O)COC(=O)c1nn(-c2ccccc2)c(=O)c2ccccc12)C1CCS(=O)(=O)C1 (stereo not given) | i | -15.5%
CC(NC(=O)CN(C)S(=O)(=O)c1ccc2c(c1)c(=O)n(C)c(=O)n2C)c1ccccc1 (stereo not given) | -8.3% | -6.7%
CSc1nsc(SCC(=O)Nc2ccccc2)n1 | ? | -11.9%
CNC(=O)CS(=O)CC(=O)Nc1cc(OC(C)C)c(Cl)cc1Cl (stereo not given) | i | -2.8%
Cc1cccc(C)c1OCC(=O)Nc1cccc(NC(=O)c2ccco2)c1 | . | -19.9%
Cc1ccc(S(=O)(=O)Cn2nnnc2CN(Cc2ccco2)Cc2cccs2)cc1 | -26.4% | -27.2%
CCOc1ccc(CC(=O)NCCc2sc3nc(-c4ccc(OC)cc4)nn3c2C)cc1 | -18.5% | -22.2%
COc1ccccc1C(=O)COC(=O)c1cc(=O)[nH]c2ccccc12 | -23.9% | 0.5%
O=C(COC(=O)CCN1C(=O)/C(=C\C=C\c2ccccc2)SC1=S)Nc1cc(F)ccc1F | -5.6% | 10.5%
CC1(C)CC(=O)c2cc(OCC(=O)N3CCOCC3)ccc2O1 | -10.1% | -5.6%
Cc1ccc(S(=O)(=O)N2CCN(C(=O)COc3ccc(C)nc3[N+](=O)[O-])CC2)c(C)c1 | -17.1% | -25.0%
Cc1cccc(-n2c3nc(=O)[nH]c(=O)c-3cc3cc([N+](=O)[O-])ccc32)c1 | ? | ?

Screening data from PubChem.

The order is random. About 0.87% of those tested had a hit in this group.
